PK Bst: modulators of Bacillus stearothermophilus pyruvate kinase | partly purified Bacillus stearothermophilus pyruvate kinase, luminescence ATP production; ribose 5-phosphate activator present at AC10 | Potency, µM | 51,000 tested, 1.2% active | AID 361; in the data active means potency below about 11 µM; inconclusive means mostly about 12 µM to 25 µM; inactive means weaker than that;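 the screen sought inhibitors and activators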;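 also: potency is read from the fitted curve at half-maximal effect; scaled between full activation by ribose 5 phosphate and full inhibition by luteolin; about four in five hits inhibit and the cells do not say which; series up to 57 µM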
YjeE inh: YjeE (TsaE) inhibition, E. coli; P0AF67; purified YjeE, fluorescence polarisation of a bound ADP probe; Potency, µM; 71,000 tested, 0.05% active; active = well fitted falling curve; inconclusive = weaker or top-dose-only fall, or a rising curve; inactive = flat or poorly fitted curve;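 also: top concentration of the series not given in the record; excess ADP was the control for the full effect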
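Fluorescence polarization of a BODIPY Texas Red–ADP probe (2 uM) bound to purified YjeE (10 uM) was read after 15 min room-temperature incubation with compounds. Loss of polarization marks inhibitors; ADP serves as titrated control.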
* = called active by the depositor; i = inactive; ? = inconclusive; . = not tested or not shown.

Molecule | PK Bst | YjeE inh
CCCn1c(O)c(CN2CCCC(C)C2)c(C)c(C#N)c1=O (stereo not drawn) | >57 | i
CCOC(=O)N1CCC(NCCNC(=O)c2cccs2)CC1 | >57 | i
O=C(c1ccncc1)N1CCC2(CC1)CCN(c1cccc(-c3ccccc3)c1)CC2 | . | i
CCn1c(SCC(=O)Nc2cccc(C(C)=O)c2)nnc1C(C)C | >57 | i
Cc1ccc(S(=O)(=O)N=Nc2c(O)[nH]c3cc(O)c(C(=O)O)cc23)cc1 | . | i
Cc1ccc(-c2nnn(CC(=O)Nc3ccccc3N3CCOCC3)n2)cc1 | >57 | i
Cc1[nH]nc2c1C(c1ccoc1)C(C#N)=C(N)O2 (stereo not drawn) | >57 | i
Cc1ccc(NC(=O)C2CCCN2S(=O)(=O)c2ccc3c(c2)CCC(=O)N3)cc1Cl (stereo not drawn) | . | i
CC(=O)c1c(O)c(C)c(O)c2c1OC1=CC(=O)[C@H](C(C)=O)C(=O)[C@]12C | . | i
Cc1cc(C)n(Cc2cc(C)c(Cn3nc(C)cc3C)cc2C)n1 | >25.6 | .
CCC(=O)Nc1ccc(S(=O)(=O)Nc2cccc(C)c2)cc1OC | >57 | i
Fc1cccc(-n2c(-c3ccco3)nc3nc4ccccc4nc32)c1 | >57 | i
COc1ccc(/C(O)=C2\C(=O)C(=O)N(CCN(C)C)C2c2cc(OC)c(OC)c(OC)c2)c(C)c1 (stereo not drawn) | >57 | i
COc1cc2c(cc1OC)C(COc1ccc(F)cc1)N(C(=O)c1ccco1)CC2 (stereo not drawn) | >57 | i
O=C(Nc1ccccc1)N1CCN(Cc2ccc3c(c2)OCO3)CC1 | . | i
CCOC(=O)CSc1nnc(CNC(=O)c2ccc(OC)cc2)n1C1CCCCC1 | >57 | i
CN=C1SC(CC(=O)Nc2ccccc2F)C(=O)N1C (stereo not drawn) | . | i
COCCn1c(C)cc(C(=O)CSc2nc3ccccc3o2)c1C | . | i
O=C(CSc1ccc2nnc(-c3ccccn3)n2n1)Nc1ccc2c(c1)OCCO2 | . | i
COC(=O)Cc1cc(=O)[nH]c(/N=C(/NC(=O)c2ccccc2)Nc2ccccc2C)n1 | >57 | i
COc1ccc(C2CC(c3c(O)cc(C)oc3=O)=NCCS2)c(OC)c1 (stereo not drawn) | . | i
CCN1CCN(CCNC(=O)CS(=O)(=O)Cc2nc(-c3ccc(C)cc3)oc2C)CC1 | . | i
COc1ccc(C2c3c(oc4ccc(C)cc4c3=O)C(=O)N2c2cc(C)ccn2)cc1OC (stereo not drawn) | >57 | i
CCOC(=O)C1C(=O)NC(N2CCCCC2)=NC1C(C)C (stereo not drawn) | >57 | i
CCOC(=O)CN1CC23C=CC(O2)C(C(=O)NCc2cccs2)C3C1=O (stereo not drawn) | >57 | i
CCOC(=O)Cn1c(C(F)(F)F)nc2nc(Cl)c(Cl)nc21 | . | i
CC1(C)CC(OC(=O)c2ccco2)CC(C)(C)N1O | >57 | i
O=C(c1ccccc1)N1CCN(CC#CC2(O)CCCCC2)CC1 | >57 | i
CC1(C)CC(=O)C2=C(C1)Nc1ccccc1N=C2 | i | i
COc1ccccc1N1CCN(CC(=O)c2c(C)[nH]c3ccccc23)CC1 | >57 | i
CC(=O)N1CCC2(CC1)CCN(c1ncccn1)CC2 | . | i
CC1(C)C(=O)OC(c2cccs2)C(C)(C)C1=O (stereo not drawn) | >57 | i
CCn1c(=N)c(C(=O)NC)cc2c(=O)n3cccc(C)c3nc21 | >57 | i
CC(Sc1nc(NCc2ccccc2)nc(N2CCOCC2)n1)C(=O)Nc1ccccc1 (stereo not drawn) | >57 | i
COc1ccc2cc3cc(C(=O)NCc4ccc5c(c4)OCO5)oc3nc2c1 | >57 | i
CC1(C)C(C=C(Cl)Cl)C1C(=O)N1CCN(c2ccccc2)CC1 (stereo not drawn) | >57 | i
N#CC1=C(N)Oc2n[nH]c(-c3ccc(F)cc3)c2C1c1ccncc1 (stereo not drawn) | >57 | i
COc1cc2cc(C(c3nnnn3C(C)(C)C)N3CCc4ccccc43)c(=O)[nH]c2cc1OC (stereo not drawn) | >57 | i
COC(=O)/C=C\c1cc(O)ccc1O | . | i
CCCc1nnc(NC(=O)CCC(=O)N2CCN(CCOc3ccc(C)cc3)CC2)s1 | >57 | i
CCOc1ccccc1NC(=O)CN(Cc1ccccc1)S(C)(=O)=O | >57 | i
O=C(O)CN1C(=O)CC(Cc2ccc(Cl)cc2)C1=O (stereo not drawn) | >57 | i
O=C(CSc1nc2ccccc2[nH]1)c1ccc2c(c1)OCO2 | >57 | i
C[C@@H](C(=O)NCC1CC1)[C@@H]1C[C@@]1(C)[C@@H](NC(=O)OCc1ccccc1)c1ccccc1 | . | i
COC(=O)CSc1nnc(-c2ccoc2C)n1-c1ccc(C)cc1 | >57 | i
COc1ccc(-n2c(=O)c(-c3ccccc3)nc3cnc(N4CCNCC4)nc32)cc1 | . | i
COC(=O)c1cn(NC(=O)C2COc3ccccc3O2)c(=O)c2ccccc12 (stereo not drawn) | >57 | i
FC(F)(F)c1ccccc1-c1nc(NCCN2CCOCC2)c2ccccc2n1 | . | i
O=C(c1ccco1)N1CCC(c2nc(-c3ccc(F)cc3)no2)CC1 | >57 | i
CNC(=O)c1cc2cc(OC)ccc2oc1=N | . | i
CNC(=O)c1cc2cccc(OC)c2oc1=O | . | i
COc1ccc(-c2noc(CCC(=O)Nc3cccnc3)n2)cc1OC | >57 | i
CCOc1ccc(N(CC(=O)NCc2ccccc2)S(=O)(=O)c2c(C)noc2C)cc1 | . | i
COc1ccc(C(=O)Nn2c(C)ccc2C)cc1OC | >57 | i
CCOc1ccc(CN2C(=O)c3ccccc3C2C(=O)NCc2cccnc2)cc1 (stereo not drawn) | >57 | i
O=C1Nc2ccccc2C(O)(C(=O)NCc2ccco2)N1c1ccc(Cl)c(Cl)c1 (stereo not drawn) | >57 | i
COc1ccc2c(c1)CCCC21NC(=O)NC1=O (stereo not drawn) | >57 | i
CCCc1c(C)c2ccccc2[nH]c1=O | >57 | i
Cc1cc(C(=O)OCC(=O)N2c3ccccc3CC2C)c(C)o1 (stereo not drawn) | >57 | i
O=C(c1cc2cc(Cl)ccc2oc1=O)N1CCCC1 | >57 | i

Grouped by structure: those above containing a cyano group
Molecule | PK Bst | YjeE inh
CCCn1c(O)c(CN2CCCC(C)C2)c(C)c(C#N)c1=O (stereo not drawn) | >57 | i
Cc1[nH]nc2c1C(c1ccoc1)C(C#N)=C(N)O2 (stereo not drawn) | >57 | i
N#CC1=C(N)Oc2n[nH]c(-c3ccc(F)cc3)c2C1c1ccncc1 (stereo not drawn) | >57 | i

More results.
Molecule | PK Bst | YjeE inh
NC(=O)c1c(NC(=O)CSc2nnc(Cc3ccccc3)n2Cc2ccco2)sc2c1CCC2 | >57 | i
COc1cc2[nH]c(=O)n(CCCC(=O)N3CC=C(c4ccccc4)CC3)c(=O)c2cc1OC | >57 | i
CC(=O)NC(CCS(C)(=O)=O)C(=O)Nc1c(F)cccc1F (stereo not drawn) | >57 | i
COc1ccccc1-c1cc(C(F)(F)F)nc(N2CCN(c3ccc(F)cc3)CC2)n1 | >57 | i
COc1ccc(N2C(=O)[C@@H]3Cc4ccccc4CN3C2=O)cc1 | >57 | i
O=C(OCn1nnc2ccccc2c1=O)C1COc2ccccc2O1 (stereo not drawn) | >57 | i
COc1ccc(C2N=C(N)N=C(N)N2c2ccccc2)cc1OC (stereo not drawn) | >57 | i
N#CC1=C(N)OC2=C(C(=O)CCC2)C1c1ccc(OC(=O)N2CCOCC2)cc1 (stereo not drawn) | >57 | i
CCOc1ccc(C(=O)Nn2cnnc2)cc1 | . | i
CC(C(=O)OCn1nnc2ccccc2c1=O)N1C(=O)c2ccccc2C1=O (stereo not drawn) | >57 | i
COCNc1nc(OCC#N)nc(N(C)C)n1 | >57 | i
Cc1cc(SCC(=O)NC(=O)NCc2ccco2)nc2c(C)cccc12 | . | i
COc1cccc(N(CC(=O)NC(C)c2ccccc2)S(C)(=O)=O)c1 (stereo not drawn) | . | i
N#Cc1nc(-c2ccco2)oc1N1CCC(C(N)=O)CC1 | >57 | i
Cc1cc(C)c2nc3c(c(C(=O)O)c2c1)CCC3 | >57 | i
COc1ccc(OC)c(NS(=O)(=O)Cc2ccccc2)c1 | >57 | i
CN(CC(=O)N1CC=C(c2ccccc2)CC1)S(=O)(=O)c1cnc[nH]1 | >57 | i
COc1ccc(NS(=O)(=O)c2ccc(N)c(C(=O)O)c2)cc1 | >57 | i
Cc1ccc(S(=O)(=O)NCCn2c(C)cc3ccccc32)cc1 | ? | i
O=C1NCCCc2nc(Oc3ccccc3)sc21 | . | i

(continued)
Results follow in this order: PK Bst, YjeE inh
O=C1C[C@H]2OCC=C3CN4CC[C@@]5(C(=O)O)[C@H](N1)[C@H]2[C@H]3C[C@H]45
    ., i
Cc1cc(O)c(C(C)(C)C)cc1Sc1cc(C(C)(C)C)c(O)cc1C
    ., i
COC(=O)C(NC(C)=O)(Nc1nc2c(s1)CCCC2)C(F)(F)F (stereo not drawn)
    >25.6, .
O=C(O)c1ccc(COc2ccc(CO)cc2Cl)cc1
    >57, i
CC(=O)Nc1ccc(S(=O)(=O)Nc2cccc(N(C)S(C)(=O)=O)c2)cc1
    >57, i
O=C(NCCc1ccccc1)c1noc2c1CCc1ccccc1-2
    >57, i
CCC(=O)Nc1ccc(-c2nn3c(C)nnc3s2)cc1
    >57, i
O=C1NC(c2ccccc2)C(C(=O)c2cccs2)=C1O (stereo not drawn)
    >57, i
Cc1cc(C)c2[nH]c(=O)c(CN(C(=O)C3CCCO3)C3CCCC3)cc2c1 (stereo not drawn)
    >57, i
CCOc1cc(CNCC2CCCO2)cc(Br)c1OCC(N)=O (stereo not drawn)
    >57, i
Cc1ccccc1-c1nnc(SCc2ccc(F)cc2)o1
    >57, i
O=C(c1ccccc1)N1CCN(c2ccc(NCc3ccc4c(c3)OCO4)cc2)CC1
    ., i
Cc1ccc(C)c(Cn2c(=O)n(CCCC(=O)NCc3ccco3)c(=O)c3ccccc32)c1
    >57, i
O=c1oc2ccccc2n1Cn1c(=O)oc2ccccc21
    >57, i
Cc1noc(NS(=O)(=O)c2ccc(NC(=O)CSc3nc4c(cc3C#N)CCCC4)cc2)c1C
    ., i
CCCC(=O)Nc1cc(C)c2c(=O)oc3ccccc3c2n1
    ., i
CCC(C)NC(=O)CC(c1ccc(OC)cc1)n1cccc1 (stereo not drawn)
    >57, i
CCC(CC)C(=O)NCCc1ccc(S(N)(=O)=O)cc1
    >57, i
Cc1nnc(NC(=O)CSc2nnc(CNC(=O)c3ccccc3)n2-c2ccccc2)s1
    ., i
CCCC(=O)Nc1ccc(OC[C@@H](O)CNC(C)C)c(C(C)=O)c1
    ., i
CCC(Sc1ccc(C(=O)O)cc1)C(=O)O (stereo not drawn)
    >57, i
CCC(C)OC(=O)n1ccc(C(=O)Nc2nccs2)n1 (stereo not drawn)
    ., i
COC(=O)N1CCC2(CCCN(c3ccccn3)C2)CC1
    ., i
Cc1ccc(-c2oc3ncnc(N)c3c2-c2ccc(C)cc2)cc1
    >57, i
COc1ccc(OC)c(S(=O)(=O)N(C)CC(=O)Nc2ccc3c(c2)OCO3)c1
    >57, i
O=C(COc1ccc(Cl)cc1)Nc1ccc(Cl)cn1
    i, i
CCCCCCn1c(SCCCC)nc2c1c(=O)[nH]c(=O)n2C
    >57, i
CN(C)CC(C)(C)NS(=O)(=O)c1ccc(Cl)cc1
    >57, i
COCCn1c(=O)c(-c2cccc(C#N)c2)nc2cnc(N3CCN(C)CC3)nc21
    ., i
O=C(C(Cc1ccccc1)n1cccc1)N1CCCCC1 (stereo not drawn)
    ., i
CCCCSc1nc(CCC)cc(=O)[nH]1
    ., i
Cc1nc2ncnn2c(C)c1CCC(=O)N1CCc2ccccc21
    >57, i
COC(=O)CSCc1nc2ccccc2[nH]c1=O
    ., i
c1ccc(CCc2nc(-c3cccnc3)no2)cc1
    >57, i
CCOC(=O)N1CCN(C(=O)CSCC(=O)N=c2sc3ccccc3n2C)CC1
    >57, i
O=S(=O)(c1ccccc1)N1CCC2(CCCN(c3cccc(-c4ccccc4)c3)C2)CC1
    ., i
CCCCOC(=O)C1C2C=C[C@]3(CN(C(C)c4ccc(OC)cc4)C(=O)[C@H]13)O2 (stereo partly drawn)
    >57, i
CC1(C)CC(=O)C(C=NCCc2ccccn2)=C(O)C1
    ., i
COc1cccc(-c2oc3ccccc3c(=O)c2O)c1
    ., i
O=C(CNC(=O)c1ccc(Cl)cc1Cl)NCC(=O)Nc1ccccc1N1CCOCC1
    >57, i
CC1=CCP(=O)(c2ccccc2)C1 (stereo not drawn)
    >57, i
Cc1ccc(C)c2nc(N3CCCC3)c(C#N)cc12
    >57, i
C=C(c1ccc(OCCO)cc1)c1ccc(OCCO)cc1
    >11.4, .
Cc1cccc(NC(=O)N(Cc2nc3ccccc3c(=O)[nH]2)C2CCCC2)c1
    >57, i

5 successive records out of the list so far:
Results follow in this order: PK Bst, YjeE inh
O=C(CNC(=O)c1ccc(Cl)cc1Cl)NCC(=O)Nc1ccccc1N1CCOCC1
    >57, i
CC1=CCP(=O)(c2ccccc2)C1 (stereo not drawn)
    >57, i
Cc1ccc(C)c2nc(N3CCCC3)c(C#N)cc12
    >57, i
C=C(c1ccc(OCCO)cc1)c1ccc(OCCO)cc1
    >11.4, .
Cc1cccc(NC(=O)N(Cc2nc3ccccc3c(=O)[nH]2)C2CCCC2)c1
    >57, i

This is a subset; the hit share may differ from the screen's.
